# Bioassay records (PubChem)
# H5N1 antiviral: MDCK cell protection from H5N1 avian flu | cytopathic effect, luminescence, 72 h; stronger effect = higher value; no value below 0 was filed and about half of the inactive calls have no number; reference of the scale not given here | inhibition, % at 50 µM | 0.07% of 96,000 active; in the data active = inhibition above about 25%
# Numbers without * were called inactive; i = inactive. An excerpt, so the mix of outcomes need not match the whole.
SMILES,H5N1 antiviral
O=C(Nc1ccncc1)c1cc(F)cc(F)c1,0.1
CCC(=O)Nc1sc2c(c1C#N)CCCCC2,i
c1ccc(-c2cn3c(n2)CCC3)cc1,i
COc1ccc(C(=O)N/C(=C/c2cccs2)C(=O)NCCCn2ccnc2)cc1OC,0.6
Cc1ccc(NS(=O)(=O)c2ccc(C(=O)N3CCCN(C)CC3)cc2)cc1,i
COc1ccc(Oc2nc3c(c(=O)n(C)c(=O)n3C)n2Cc2cccc(OC)c2)cc1,i
CSc1nc(-c2ccccc2)nc(N)c1C(C)=O,i
Cc1ccc(C2N(c3cc(C)on3)C(=O)C3CCCN32)cc1 (stereo unspecified),i
COc1ccc(NC(=O)CN2CCC(NC(=O)C3CCCCC3)CC2)cc1,i
CC(Oc1ccccc1Cl)C(=O)N(Cc1ccco1)C1CCS(=O)(=O)C1 (stereo unspecified),i
CCOc1ccccc1NC(=O)CSc1nnc2c(CC)c(C)nc(N)n12,2.6
CSc1cccc(NC(=O)CN(c2cc(C)ccc2C)S(C)(=O)=O)c1,1.5
Cc1cccc(-n2c(Cc3cc(=O)[nH]c(=O)[nH]3)nnc2SCC(=O)NCC2CCCO2)c1 (stereo unspecified),i
O=C(COC(=O)c1ccc2c(c1)OCO2)NCc1ccc(Cl)cc1,i
Cc1cc(NC(=O)CCC(=O)N(Cc2ccco2)C2(C(=O)NC3CCCCC3)CCN(C)CC2)no1,i
CCS(=O)(=O)c1ccc2oc(Nc3ccccc3C)nc2c1,i
O=C(CNS(=O)(=O)c1cccs1)N1CCN(c2ccccn2)CC1,0.3
CCCCC(=O)NN(C)c1nc(-c2ccccc2)nnc1C(F)(F)F,0.1
COC(=O)C1=[N+]([O-])OC(C(=O)OC)C1c1c[nH]c2ccccc12 (stereo unspecified),i
Cc1c(Cl)cccc1N(CC(=O)NC1CCCCC1)S(C)(=O)=O,i
O=C(O/N=C1/CCSc2ccccc21)c1ccccc1,i
COC(=O)c1ccc2nc(C)c(C)nc2c1,1.2
CC(=O)n1nc(-c2ccco2)nc1N,0.5
CCn1c2ccccc2c2nnc(SCC(=O)N3CC(C)OC(C)C3)nc21 (stereo unspecified),1.3
Cn1c(=O)c(-c2ccccc2N)nc2ccccc21,0.1
O=C(c1ccccc1)N1CCN(c2ccc(Cl)cc2)CC1,i
CCOC(=O)C1=C(N)OC2=C(C(=O)CC(C)(C)C2)C1c1cccnc1 (stereo unspecified),i
CC(=O)c1c(C)[nH]c(C(=O)OCC(=O)Nc2cc(C)on2)c1C,i
Cc1ccccc1OCCN1C(=O)NC2(CCc3ccccc32)C1=O (stereo unspecified),i
CCOc1ccc(Cc2nn[nH]n2)cc1,i
CC(=O)NC(CCS(C)(=O)=O)C(=O)Nc1c(C)cccc1C (stereo unspecified),2.3
O=C(CN1CC(=O)Oc2ccccc21)OCC(=O)c1cccc(Br)c1,i
O=C(Oc1ccc2c(c1)CCC2)N1CCOCC1,1.0
O=C(Oc1ccc2c(c1)OCO2)c1ccncc1,i
O=C(CSc1nccn1-c1ccc(F)cc1)Nc1ccc2c(c1)OCO2,0.8
COc1cc2c(cc1OC)C(C(=O)Nc1ccc3c(c1)OCCO3)C1c3ccccc3CCN1C2=O (stereo unspecified),i
Fc1ccc(C2CC(c3ccccc3)Nc3ncnn32)cc1 (stereo unspecified),2.2
COc1ccc(CCNC(=O)Cn2c(=O)cnc3ccccc32)cc1,i
Cc1ccccc1NC(=O)Nc1ccccc1C(=O)NCc1ccccc1,i
Nc1cccc2nc3ccccc3cc12,i
CC12CCC(C(=O)Nc3cccnc3)(CC1=O)C2(C)C (stereo unspecified),0.1
CN(C)/C=C(/C(=O)c1ccc(Cl)cc1)S(=O)(=O)c1ccccc1,0.4
O=C1NCCN1Cc1ccccc1F,i
OCCn1c(SC2CCCCC2)nc2ccccc21,0.5
COC(=O)CN1C(=O)Nc2ccc(Br)cc2C1c1ccccc1Cl (stereo unspecified),i

# 19 compounds out of the list, sorted by formula weight, high to low.
SMILES,H5N1 antiviral
COc1cc2c(cc1OC)C(C(=O)Nc1ccc3c(c1)OCCO3)C1c3ccccc3CCN1C2=O (stereo unspecified),i
COC(=O)CN1C(=O)Nc2ccc(Br)cc2C1c1ccccc1Cl (stereo unspecified),i
O=C(CN1CC(=O)Oc2ccccc21)OCC(=O)c1cccc(Br)c1,i
CCn1c2ccccc2c2nnc(SCC(=O)N3CC(C)OC(C)C3)nc21 (stereo unspecified),1.3
O=C(CSc1nccn1-c1ccc(F)cc1)Nc1ccc2c(c1)OCO2,0.8
Cc1ccccc1NC(=O)Nc1ccccc1C(=O)NCc1ccccc1,i
CN(C)/C=C(/C(=O)c1ccc(Cl)cc1)S(=O)(=O)c1ccccc1,0.4
CCOC(=O)C1=C(N)OC2=C(C(=O)CC(C)(C)C2)C1c1cccnc1 (stereo unspecified),i
COc1ccc(CCNC(=O)Cn2c(=O)cnc3ccccc32)cc1,i
Cc1ccccc1OCCN1C(=O)NC2(CCc3ccccc32)C1=O (stereo unspecified),i
CC(=O)NC(CCS(C)(=O)=O)C(=O)Nc1c(C)cccc1C (stereo unspecified),2.3
O=C(c1ccccc1)N1CCN(c2ccc(Cl)cc2)CC1,i
Fc1ccc(C2CC(c3ccccc3)Nc3ncnn32)cc1 (stereo unspecified),2.2
OCCn1c(SC2CCCCC2)nc2ccccc21,0.5
CC12CCC(C(=O)Nc3cccnc3)(CC1=O)C2(C)C (stereo unspecified),0.1
Cn1c(=O)c(-c2ccccc2N)nc2ccccc21,0.1
O=C(Oc1ccc2c(c1)CCC2)N1CCOCC1,1.0
O=C(Oc1ccc2c(c1)OCO2)c1ccncc1,i
O=C1NCCN1Cc1ccccc1F,i

# Continued:
SMILES,H5N1 antiviral
CC(=O)c1cccc(NC(=O)CSCc2ccccc2)c1,i
CCOC(=O)C1CCN(S(=O)(=O)c2c(C)n[nH]c2C)CC1,0.6
COc1ccc(N2CCN(c3ccc(N)cc3C#N)CC2)cc1,i
O=C(Cn1c(=O)oc2cc(S(=O)(=O)N3CCc4ccccc43)ccc21)NC1CCCC1,4.1
CCCCCn1c2nc3ccccc3nc2c2c(=O)n(CC(C)C)cnc21,2.6
Cc1onc(-c2ccccc2)c1C(=O)Nc1ccc2c(C)cc(=O)oc2c1,0.5
CNC(=O)ON(C(=O)NC)C1N(C)C(=S)SC1(C)C (stereo unspecified),3.1
O=C(NCc1nnc(SC/C=C/c2ccccc2)o1)c1ccco1,i
Cc1ccc(C)c(NC(=O)CCN2CC(C)OC(C)C2)c1 (stereo unspecified),i
Cc1ccc(-c2[nH]c3ccccc3c2C(C[N+](=O)[O-])c2ccco2)cc1 (stereo unspecified),1.1
CCCn1nnnc1NC(=O)c1ccc(C)cc1Cl,i
Cc1ccccc1NC1=C(Cl)C(=O)OC1OC(C)C (stereo unspecified),i
OCCCCNCc1ccc(OCc2ccc(Cl)cc2Cl)cc1,i
O=C(CC1Oc2ccccc2NC1=O)NCCCN1CCCC1=O (stereo unspecified),0.1
COc1ccc(CCNC(=O)c2nnn(-c3ccccc3OC)c2N)cc1OC,i
Cc1cc(C)c2nc(C(F)(F)F)nc(N3CCN(C(=O)c4ccco4)CC3)c2c1,i
O=C(Nc1cccc(O)c1)c1ccc(Br)c(S(=O)(=O)N2CCCCC2)c1,i
Cc1nc2c(-c3ccc(F)cc3)c(C)nn2c(C)c1CCC(=O)N1CCN(c2ccccc2)CC1,2.7
O=C(NCc1cccnc1)/C(=C/c1ccc(-c2cccc(Cl)c2)o1)S(=O)(=O)c1ccccc1,i
O=C(NCCc1ccc(Cl)cc1)C1CCN(c2cnccn2)CC1,i
O=C(c1ccncc1)N1CCN(C(=O)c2ccco2)CC1,i
CCOC(=O)c1ccc(NC(=O)CC2Sc3ncnn3C2=O)cc1 (stereo unspecified),i
O=C(CCCn1ncn2c(cc3occc32)c1=O)N1CCc2ccccc2C1,i
O=C(NCN1CCN(CCO)CC1)c1cnccn1,i
COC(=O)C1CCN(C(=O)COc2cc3sc(C)nc3c3sccc23)CC1,0.1
COc1ccc(Cl)cc1N1C(=O)CC(N2CCc3ccccc32)C1=O (stereo unspecified),i
O=C(Cc1nc2ccccc2[nH]1)NCc1ccco1,0.4
Cc1ccc(-n2c(N)c(C(N)=O)sc2=S)c(C)c1,i
COC1CCCCC1NS(=O)(=O)c1ccc(Cl)cc1 (stereo unspecified),0.1
CCOc1ccccc1NC(=O)c1ccc(S(=O)(=O)N2CCOCC2)cc1,i
O=C(O)COc1ccc(/C=N/NC(=O)C2CCCN2S(=O)(=O)c2ccc(Cl)cc2)cc1 (stereo unspecified),1.3
O=S(=O)(c1ccc(Cl)s1)N1CCN(C/C=C/c2ccccc2)CC1,i
CCOC(=O)C1CCN(c2ncnc3c2cnn3-c2ccccc2)CC1,0.5
CCCC(c1nnnn1C1CCCC1)N1CCN(C(=O)c2ccco2)CC1 (stereo unspecified),2.6
Cc1ccc(S(=O)(=O)NC(=O)NCc2ccc(Cl)cc2)cc1,i
CCc1nnc(NC(=O)CSc2nnc(-c3ccoc3C)n2-c2cccc(C)c2)s1,i
COC(=O)c1cc2c(cc1NC(=O)CSCCc1ccccn1)OCO2,0.8
Nc1nc2ccc(C(=O)Nc3ccccc3)cc2s1,i
COC(=O)C1=C2SC(C)C(=O)N2C(N)=C(C#N)C1c1cc(OC)c(OC)c(OC)c1 (stereo unspecified),i
Nc1nc(SCC(=O)Nc2ccccc2Sc2ccc(Cl)cc2)n[nH]1,i
COc1ccc(S(=O)(=O)n2ccc(C)n2)cc1C,1.9
COc1ccc(OC)c(C(c2nnnn2CC2CCCO2)N2CCN(C3CCCC3)CC2)c1 (stereo unspecified),1.1
CCOC(=O)C(NCc1ccccc1)(NC(=O)c1ccccc1)C(F)(F)F (stereo unspecified),i
COC(=O)CCC(=O)NNC(=O)c1ccc(Cl)cc1Cl,i
COc1ccc(-n2nc3c(c2NC(=O)c2c(F)cccc2Cl)CS(=O)C3)cc1 (stereo unspecified),i
Cc1cccc(OCCNc2nc3c(c(=O)n(C)c(=O)n3C)n2C)c1,i
Cc1ccc(Cl)c(OCC(O)CN(CCO)CCO)c1 (stereo unspecified),i
O=C(c1ccccn1)N(Cc1ccco1)C1(C(=O)NC2CCCC2)CCCCC1,0.2
Cc1c(CCOC(=O)CC23CC4CC(CC(C4)C2)C3)sc[n+]1Cc1ccccc1,0.9
Cc1ccc(CSc2nc3c(c(=O)[nH]c(=O)n3C)n2CCC(C)C)cc1,i
S=c1[nH]nc(Cc2cccs2)n1-c1ccccc1,i
CCCn1nnc(NC(=O)COc2cc(C)ccc2C(C)C)n1,i
CCC(=O)N1CCN(c2ccc(Cl)cc2NC(=O)Cc2ccc(Cl)cc2)CC1,i
CCOC(=O)Cc1csc(SCC(=O)Nc2cccc(Cl)c2)n1,i
Cc1cc(C)cc(N(C(=O)Cc2cccs2)C(C(=O)NC2CCCC2)c2ccc(C)o2)c1 (stereo unspecified),2.4
CCc1ccccc1NC(=O)CN(C)C(=O)CN1C(=O)NC2(CCCCCC2)C1=O,i
O=C(c1ccc(C23CC4CC(CC(C4)C2)C3)o1)N1CCOCC1,1.4
CS(=O)(=O)N(CC(=O)N1CCN(c2cccc(Cl)c2)CC1)c1ccccc1,0.9
O=C(O)c1cc(C2CC2)nn1-c1ccccc1,i
CCCC(c1nnnn1CCOC)N(Cc1cc2cc(C)c(C)cc2[nH]c1=O)CC1CCCO1 (stereo unspecified),0.5

# 3 entries from above, ordered by molar mass, descending.
SMILES,H5N1 antiviral
CCC(=O)N1CCN(c2ccc(Cl)cc2NC(=O)Cc2ccc(Cl)cc2)CC1,i
CS(=O)(=O)N(CC(=O)N1CCN(c2cccc(Cl)c2)CC1)c1ccccc1,0.9
O=C(O)c1cc(C2CC2)nn1-c1ccccc1,i

# The results go on:
SMILES,H5N1 antiviral
Cc1cc(C)nc(SCC(=O)Nc2ncc3c(n2)CC(C)(C)CC3=O)n1,0.6
Cn1c(=O)oc2cc(S(=O)(=O)NCc3ccncc3)ccc21,1.0
O=C(NCCOc1nc(N2CCCCC2)nc(N2CCOCC2)n1)Nc1ccccc1,i
O=C(NCC1CCCO1)c1onc(CSc2ccccc2F)c1C(=O)O (stereo unspecified),i
COc1cc(-c2nn3c(-c4ccccn4)nnc3s2)cc(OC)c1OC,0.4
Cc1c(NC(=O)C(C)Sc2ccc3ccccc3n2)c(=O)n(-c2ccccc2)n1C (stereo unspecified),0.3
Oc1ccc2oc3c(c2c1/C=N/n1cnnc1)CCCC3,0.7
COc1ccc(C2CC(=O)C(C=NCCO)=C(O)C2)cc1OC (stereo unspecified),0.2
c1ccc2c(c1)c1c3n2CCNC3CCC1 (stereo unspecified),i
N#Cc1c(N)nc(SCC(=O)C23CC4CC(CC(C4)C2)C3)c(C#N)c1-c1ccc(Cl)cc1,i
c1cncc(-c2nc3ccccc3o2)c1,i
O=C(CCCC(=O)n1cnc2ccccc21)n1cnc2ccccc21,0.9
O=C1Cc2ccccc2C(=O)N1Cc1ccccc1,0.4
Cc1ccc(Cl)c(OCC(=O)NCc2ccco2)c1,i
COc1ccc(OC)c(-n2nnnc2SCC(=O)NCc2ccc3c(c2)OCO3)c1,0.1
COc1ccc(C(O)Cn2c(=N)n(CCCN(C)C)c3ccccc32)cc1 (stereo unspecified),i
CCOC(=O)C1=C(C)NC(=O)NC1c1cn(-c2ccccc2)nc1-c1cccs1 (stereo unspecified),i
COc1cc2c(cc1NC(=O)c1cccc(Br)c1)CCCC2,0.1
Cc1cc(C)c(Cn2c(=O)n(CCCC(=O)NCc3ccco3)c(=O)c3sccc32)c(C)c1,i
CCCCc1nnc(NC(=O)C(C)Sc2nc(C)cc(=O)[nH]2)s1 (stereo unspecified),i
CC(C)OCCCNCc1cccs1,0.2
CC(C)(C)NCC1(CO)SC(N)=NC1=O (stereo unspecified),0.3
O=C(OCC(=O)N1CCN(C(=O)c2ccco2)CC1)c1cc(=O)c2ccccc2o1,0.0
CN(C)C(CNS(=O)(=O)c1ccc(Br)cc1)c1cccnc1 (stereo unspecified),0.0
COc1ccc(CN2CCN(c3ccccc3)CC2)c(C)c1C,i
Cc1ccc(C2=CSC3=NS(=O)(=O)CCN23)cc1C,0.5
CC1(C)CC(=O)c2cc(OCC(=O)NCC3CCCO3)ccc2O1 (stereo unspecified),i
CCn1cc(C(=O)NCc2ccco2)c(=O)c2cc(S(=O)(=O)N3CCCCCC3)ccc21,1.2
ONC(=Nc1ccc(Cl)cc1)c1ccccc1,1.1
